Menin MLL FP FL = displaces fluorescein MLL peptide from human menin; Fluorescence polarization, fluorescein-MLL peptide displacement from menin; FP activity change, % at 61.4 µM; 290,000 tested, under 10 active; AID 1766; inconclusive = falling polarisation curve, or a change in total fluorescence; inactive = total fluorescence flat and polarisation flat or rising; no compound was filed as active; the % refers to the polarisation; negative = inhibition;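 further: % of control where 0% means no effect; inhibitors lower the polarisation; unlabelled MLL peptide was the positive control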
TRPV1 PAM = enhances activation of the human vanilloid receptor TRPV1 | potentiation, % at 8.33 µM | TRPV1-expressing cells, Fluo-8 calcium influx, capsaicin EC20 potentiation; host cell line not named in the record; control for the full effect not named in the record | actives 0.02% (n = 320,000); active means potentiation above 80%; inconclusive means 30% to 80%; inactive means below 30%; further: 0% is about no effect
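Cells expressing TRPV1 were dye-loaded with Fluo-8 and read kinetically: 10 s baseline, 3 min after compound (agonist portion), then 2 min after EC20 capsaicin (allosteric enhancer portion). Calcium-bound dye fluorescence at 480/520 nm.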
D2 PAM = human D2 receptor positive allosteric modulation; DiscoveRx D2 beta-arrestin cells, luminescence, 90 min; 100% = 57 uM dopamine signal; potentiation, % (concentration not given with the values); actives 0.23% (n = 360,000); AID 624464; P14416; active = potentiation of 50% or more; inconclusive = 30% to 50%; inactive = 30% or less;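 further: compound concentration not given in the record; tested on top of an EC20 dose of dopamine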
Target sequence (P14416 whole entry, looked up): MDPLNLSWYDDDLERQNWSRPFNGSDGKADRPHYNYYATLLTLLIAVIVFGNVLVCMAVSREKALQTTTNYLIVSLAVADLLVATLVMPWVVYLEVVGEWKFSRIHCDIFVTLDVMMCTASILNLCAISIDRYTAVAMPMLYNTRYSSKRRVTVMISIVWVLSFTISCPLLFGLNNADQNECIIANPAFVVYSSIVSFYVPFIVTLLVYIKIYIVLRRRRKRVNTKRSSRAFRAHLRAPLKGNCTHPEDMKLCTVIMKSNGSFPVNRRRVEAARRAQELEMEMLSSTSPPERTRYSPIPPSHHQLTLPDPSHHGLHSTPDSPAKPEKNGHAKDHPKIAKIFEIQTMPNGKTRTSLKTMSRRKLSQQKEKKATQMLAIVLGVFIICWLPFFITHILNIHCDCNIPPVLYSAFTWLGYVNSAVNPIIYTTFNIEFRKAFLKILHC
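PathHunter beta-arrestin assay in DiscoveRx D2 cells. Compounds were added with an EC20 of dopamine (50 nM final) for 90 min at 37 deg C. Luminescence was read 1 h after detection reagent, with 57 uM dopamine as the EC100 control.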
gsp ag = activates gsp, the McCune-Albright syndrome mutation. gsp mutant cells, cAMP HTRF, 30 min; control for the full effect not named in the record. Potency, µM (highest dose often 76.9 µM), for inactives: at the top dose activation (cAMP increase), actives largely listed as activators. AID 624287. actives 0.13% (n = 340,000); active = well fitted activation curve with a large enough effect; inconclusive = small, poorly fitted or top-dose-only effect, or another doubt; inactive = no such curve, though single readings can be large or run the other way; cell line not stated here;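 further: phosphodiesterase inhibitor Ro 20-1724 added with compounds to block cAMP breakdown; potency means the concentration at half of the fitted maximal effect; nearly all actives have a fitted effect of over 60% in size; about a fifth of the inactives were tested at one dose only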
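Cells stably selected in G418 were plated at 2000/well, grown 16-24 hr, then given compounds in DMSO with the PDE inhibitor […] (300 uM solution added) for 30 min at 37C; cAMP was read by HTRF.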
gsp antagonist = antagonizes gsp, the McCune-Albright syndrome mutation; gsp-mutant cells, cAMP HTRF, 30 min; control for the full effect not named in the record; Potency, µM (titrated, usually from 76.9 µM), without a hit: at the highest dose activity change, negative = inhibition, actives largely listed as inhibitors; actives 0.4% (n = 340,000); AID 624288; active = falling curve of any shape with a large fitted effect; inconclusive = falling curve, mostly with a smaller effect; inactive = flat or rising curve; cell line not stated here;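 further: intracellular cAMP measured with PDE inhibitor Ro 20-1724 present during compound exposure; potency means the concentration at half of the fitted maximal effect; on the % scale 0 is the no-effect control and ±100 the full control effect; nearly all actives have a fitted effect of over 65% in size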
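Measurement of cellular cAMP by homogeneous time-resolved fluorescence following a 30 min compound exposure at 37C. The PDE inhibitor […] was present throughout; the assay buffer was DPBS with 0.05% BSA and 0.005% Tween 20.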
Sfp inh = Sfp phosphopantetheinyl transferase inhibition; Potency, µM, for inactives: max response, negative = inhibition, most hits filed as inhibitors; Q9F4F7; Biochemical Sfp PPTase activity, qHTS; actives 3.5% (n = 310,000); active means well fitted inhibition curve with a large enough effect; inconclusive means small, poorly fitted or top-dose-only effect, or another doubt; inactive means no such curve, though single readings can be large or run the other way;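 further: the enzyme is Sfp with the accession as filed and its product quenches rhodamine fluorescence; potency means the concentration at half of the fitted maximal effect; 0% = enzyme reaction without inhibitor and -100% = no enzyme wells; top concentration of the series not given in the record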
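Buffer: 50 mM Hepes-Na pH 7.6, 10 mM MgCl2, 0.01% Nonidet P-40, 0.01% BSA. Enzyme 15 nM, pre-exposed to compound 15 min; substrates then added and fluorescence change tracked over 30 min.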
ClpP mod = qHTS Assay for Activators of ClpP; ATP-dependent Clp protease proteolytic subunit (Bacillus subtilis (strain 168)), P80244; purified B. subtilis ClpP, FRET peptide cleavage, 20 min; Potency, µM (highest dose often 57.5 µM), for the others: at the highest dose activity change, negative = active; actives 1.9% (n = 340,000); AID 651965, 2013; active = well fitted falling curve with a large enough effect; inconclusive = small, poorly fitted or top-dose-only effect; inactive = no such curve, though single readings can be large or run the other way; further: potency means the concentration at half of the fitted maximal effect; the source files actives as falling curves though it sought activators and does not explain the sign; nearly all actives have a fitted effect of over 65% in size; many hits overshoot -100%
Target sequence (P80244 whole entry, looked up): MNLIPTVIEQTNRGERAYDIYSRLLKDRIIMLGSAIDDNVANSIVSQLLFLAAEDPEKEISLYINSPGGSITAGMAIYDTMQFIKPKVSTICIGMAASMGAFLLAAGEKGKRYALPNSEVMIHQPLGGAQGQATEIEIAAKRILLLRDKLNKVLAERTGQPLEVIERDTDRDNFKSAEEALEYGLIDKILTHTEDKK
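FRET quenching reversal measured ClpP activation: 10 microg/mL B. subtilis ClpP at pH 8 with the FRET-FV decapeptide, read at 430 nm after 320 nm excitation. The 20-min minus 0-min signal was scaled between DMSO/no-enzyme wells and ADEP (5.8 microM final).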
Active calls of the source: *; u = inconclusive; x = not tested or not shown; & = joins results of further samples; [ ] = remark or other dose. The order is random; 5.1% or so of the library scored in one or more.

SMILES | Menin MLL FP FL | TRPV1 PAM | D2 PAM | gsp ag | gsp antagonist | Sfp inh | ClpP mod
O=C(C1CC1)N1CCN=C1SCc1cccc(F)c1 | 0.5 | u | -5 | 20% | -15% | 16% | 0.4%
O=C(NNC(=S)NC(=O)c1cccc([N+](=O)[O-])c1)c1ccc(O)cc1 | -8.0 | -3 | -8 | 18%[15.4 µM] | -41% | u | -2.0%
COc1cccc(OCc2cc(C(=O)NC3CCOCC3)no2)c1 | -2.1 | u | -16 | -19% | 5% | 8% | -3.0%
Cc1ccc(Nc2nc(C3CC3)cs2)cc1 | 8.9 | -6 | x | x | x | 45µM* | x
CCOc1cc(C(=O)Nc2ncn[nH]2)cc(OCC)c1OCC | -1.3 | -10 | 4 | 4%[15.4 µM] | -1% | 15% | x
CC1CCN(C(=O)C(=O)Nc2sc3c(c2C(=O)O)CC(C)(C)OC3)CC1 | x | 1 | -10 | u | u | 13% | -0.9%
CCOc1ccccc1NC(=O)CN(c1ccc(OC)cc1)S(=O)(=O)c1c(C)[nH]c(=O)[nH]c1=O | x | 3 | -9 | 1% | -2% | 4% | -1.2%
COc1ccc(-c2c(=O)n(OCc3ccccc3[N+](=O)[O-])c3ccccc3[n+]2[O-])c(OC)c1 | -3.5 | 9 | -8 | -49%[inhibitor] | -22% | 8% | x
COc1cc(/C=C(\C#N)c2nc3ccccc3s2)ccc1OCC(=O)Nc1ccccc1 | u | 2 | -4 | u | 8% | u | -2.9%
O=[N+]([O-])c1ccc(N2CCCCC2)s1 | 26 | -3 | -12 | -25% | -2% | 50µM* | x
COc1ccc(C(=O)NC2CCCCC2)cc1S(=O)(=O)N1CCOCC1 | -4.5 | 3 | -7 | -3% | 4% | 7% | x
O=C(Nc1ccc(NS(=O)(=O)c2ccccc2)cc1)c1cccnc1 | -3.6 | 0 | -13 | u | u | -2% | x
O=c1cc(CSc2nnc(Nc3ccccc3F)s2)nc2sccn12 | -1.4 | 12 | -6 | 7%[15.4 µM] | x | 11% | x
Cc1cc(C)cc(C(=O)NCC(=O)OCc2nc(N)nc(Nc3ccccc3C)n2)c1 | x | 7 | -14 | 23% | -13% | x | 1.4%
O=C(NCCc1cccc(F)c1)C1CCN(S(=O)(=O)c2ccc(F)cc2)CC1 | -0.4 | -2 | -7 | -34%[inhibitor] | -12% | 6% | 0.0%
COc1ccc(CC(=O)Nc2nnc(SCC(=O)NCc3ccco3)s2)cc1OC | -2.9 | 8 | -25 | 4%[15.4 µM] | -12% | 8% | -0.2%
O=C(NC1CCCCC1)C1CCC(CNS(=O)(=O)c2ccccc2)CC1 (stereo not given) | 1.2 | -15 | -6 | u | 11% | -17% | -0.7%
O=C(NCc1ccc(C(F)(F)F)cc1)C1CC(c2ccccc2C(F)(F)F)=NO1 (stereo not given) | 0.8 | u | -2 | x | 4% | 12% | 1.7%
CC(C)C(=O)c1c(C(C)C)nn2ccccc12 | u | x | -2 | x | 4% | 4% | -3.6%
COc1cccc(-c2nc(CS(=O)(=O)CC(=O)N3CCN(C)CC3)c(C)o2)c1 | 0.2 | 3 | -9 | -20% | 7% | 18% | -3.8%
Cc1csc(NC(=O)CSc2nnc(NC(=O)NC(C)(C)C)s2)n1 | x | 10 | -5 | 9%[15.4 µM] | -1% | x | 0.4%
CC(=O)Nc1ccc(N(C(=O)CNC(=O)c2ccco2)C(C(=O)NCC2CCCO2)c2ccccc2)cc1 (stereo not given) | -5.1 | 6 | -2 | -44%[inhibitor] | 11% | 8% | x
Cc1ccc(N=C2S/C(=C/c3cccc(OCC(=O)O)c3)C(=O)N2C)cc1C | -8.1 | -15 | -4 | 0%[15.4 µM] | -15% | -7% | 0.4%
Cc1ccc(OCCOCCOc2ccc(Br)cc2/C=N\NC(=O)c2ccncc2)cc1 | 5.8 | 9 | 9 | -27% | u | -1% | -4.4%
Cc1ccc(NC(=O)C(=O)NCCOc2ccccc2Cl)cc1 | -1.1 | 6 | 7 | 6% | 8% | 4% | -0.9%
CS(=O)(=O)N1CCC(C(=O)Nc2ccc3c(c2)OCCO3)CC1 | -6.1 | -16 | -12 | 11% | -1% | 8% | 0.8%
CN(n1cnc2ccccc2c1=O)S(C)(=O)=O | 0.4 | -43 | -4 | -23% | 16% | 9% | 1.3%
CCCc1nnc(NC(=O)Nc2ccccc2OC)s1 | 0.1 | 4 | 1 | 22% | 5% | 8% | -1.5%
O=C(CSCC(=O)N1CCCCC1)OCC(=O)c1c[nH]c2ccccc12 | 0.4 | 9 | 9 | -1% | -17% | -10% | -4.3%
CC(C)Cc1c(O)nc(SCC(=O)Nc2ccc3c(c2)CCC3)[nH]c1=O | 1.7 | 10 | -14 | -36%[inhibitor] | u | 10% | -0.2%
O=C(C1CCN(Cc2cccs2)CC1)N1CCN(Cc2ccc3c(c2)OCO3)CC1 | 2.0 | -1 | -16 | 6%[15.4 µM] | 9% | u | x
COc1ccccc1NC(=S)N(CCCN1CCOCC1)Cc1cn(C)c2ccccc12 | 2.7 | -6 | -17 | -3%[15.4 µM] | -11% | -6% | -2.0%
COc1ccccc1CC(=O)N1CCN(c2ccc([N+](=O)[O-])cc2)CC1 | 0.2 | -1 | -16 | 23% | u | 15% | 0.6%
CCc1c(O)nc(SCC(=O)N2CCCCC2)n(-c2ccccc2C)c1=O | 6.2 | 11 | -11 | -2% | -8% | -3% | -0.1%
COc1ccc(NC(=O)c2ccccc2OCc2ccc(F)cc2)c(OC)c1 | -3.5 | 0 | -5 | -8%[15.4 µM] | 3% | -19% | x
COC(=O)c1ccccc1NC(=O)C1=CC(c2cccs2)=NS(=O)(=O)N1C | -5.4 | 6 | 2 | 12% | -24% | 18% | -2.6%&-4.9%
Cc1cccc(CC(=O)N2CCOCC2)c1 | 1.2 | 14 | -2 | 0% | 1% | 18% | -2.4%
CCN(CC)CCn1c2c(c(SCC(=O)Nc3ccc(C(C)C)cc3)nc1=O)CCCC2 | x | 0 | -7 | 10% | 8% | x | -2.4%
O=C(/C=C/c1ccccc1[N+](=O)[O-])NCCN1C(=O)S/C(=C\c2ccc(F)cc2)C1=O | -4.3 | -8 | 3 | -11%[15.4 µM] | 7% | -14% | x
COc1ccc(N2CCN(CCNC(=O)Nc3ccc(C)c(Cl)c3)CC2)cc1 | 2.6 | -16 | -11 | -43%[inhibitor] | -4% | 9% | -16%
C#CCN1C=CC(=O)[C@@H](OC(=O)Nc2ccc(C)cc2)[C@H]1c1ccccc1Br | x | x | -5 | x | -2% | x | -5.9%
N#CCCSCc1ccc2oc(C(=O)O)cc2c1 | 2.9 | -11 | -2 | -5% | 3% | 7% | -5.6%
S=c1[nH]nc(-c2ccc(Cl)cc2)n1CCCN1CCOCC1 | -5.0 | -3 | -6 | -2% | -7% | 13% | -1.2%
CCCN(Cc1ccco1)S(=O)(=O)c1ccc(OC)c(OC)c1 | -0.2 | -7 | -12 | 11% | 8% | 1% | 1.5%
O=C(Nc1ccc(N2CCCC2)cc1)c1ccc([N+](=O)[O-])cc1Cl | 4.5 | -2 | -4 | -5% | 2% | 10% | -1.7%
COc1ccc(OC)c(NC(=O)C2CC(=O)N(CCc3ccccc3)C2)c1 (stereo not given) | -1.7 | 0 | -7 | -4%[15.4 µM] | 2% | 16% | -7.3%
CC(=O)c1ccc(N2CCN(C(=O)C3CCN(S(=O)(=O)Cc4ccccc4)CC3)CC2)cc1 | 5.5 | 4 | -3 | 0% | -17% | -23% | -2.6%
CCCc1[nH]nc2c1C1(C(=O)N(C(C)C)c3ccccc31)C(C#N)=C(N)O2 (stereo not given) | 3.2 | 8 | 7 | -15% | -20% | 6% | -1.2%
COCc1c(C(=O)N/N=C(\C)c2ccncc2)nnn1-c1nonc1N | 0.5 | -1 | -1 | 7% | 3% | 11% | -0.8%
CCOC(=O)C(C)Oc1c(C(=O)OC)sc2ncccc12 (stereo not given) | 0.4 | 19 | -17 | 15%[15.4 µM] | -15% | 14% | 0.9%
COC(C/C=C\[C@H](O)[C@@H](C)OCc1ccccc1)OC | x | x | -5 | -7% | 10% | x | -0.5%
S=c1[nH]nc(C(c2ccccc2)C2CCCCC2)o1 (stereo not given) | -2.1 | 2 | -1 | -7%[15.4 µM] | 6% | 7% | x
CS(=O)(=O)c1ccc(C(=O)OCC(=O)NC2CCS(=O)(=O)C2)cc1[N+](=O)[O-] (stereo not given) | -2.8 | -1 | 2 | -17% | -3% | 18% | 0.7%
COCCn1c(SCc2nnc(-c3ccccc3)o2)nc2sc3c(c2c1=O)CCC3 | 4.8 | 26 | 7 | u | -13% | 6% | -14%
CCC(=O)c1ccc(N2CCN(C(=O)c3cc([N+](=O)[O-])ccc3F)CC2)c(F)c1 | -5.5 | 4 | -15 | -12%[15.4 µM] | -16% | 11% | 0.1%
COc1cccc(NCc2cc(=O)oc3cc(C)c(O)cc23)c1 | -3.6 | -5 | -4 | 1% | -6% | 5% | x
O=C1CC(c2ccco2)CC(O)=C1C=Nc1ccccc1-c1ccccc1 (stereo not given) | -1.2 | 11 | -1 | -38%[inhibitor] | -16% | -3% | x
Cc1ccc(CNC(C)(C)CO)cc1 | -3.9 | -7 | -11 | 0% | 11% | -6% | -1.4%
Cc1ccc(NC(=O)CCCc2nc3ccccc3s2)c(O)c1 | 0.2 | 19 | -3 | -4% | -10% | -11% | x
C/C(=C\[C@@H](NP(=O)(c1ccccc1)c1ccccc1)c1ccccc1)CO[Si](c1ccccc1)(c1ccccc1)C(C)(C)C | 0.4 | x | -6 | -23% | -8% | 19% | -3.2%
Cc1ccc(C(=O)NCCCNC(=O)COc2ccc(C)c(C)c2)cn1 | -3.2 | 1 | -2 | 2%[15.4 µM] | 1% | 11% | x
Cc1cc2cc(CN(CC3CCCO3)C(=S)Nc3ccccc3)c(=O)[nH]c2cc1C (stereo not given) | 7.5 | 6 | -8 | 4% | -11% | -6% | -6.0%
